D2 agonist: Beta-Arrestin HTS for Positive Allosteric Modulators of the Human D2 Dopamine Receptor: Agonists; activation, % (concentration not given with the values); DiscoveRx PathHunter D2 beta-arrestin, luminescence, 90 min; 100% = 57 uM dopamine signal; AID 624465, 2012; actives 0.084% (n = 360,000); in the data active = activation above about 40%; inconclusive = about 15% to 40%; inactive = below about 15%; note: compound concentration not given in the record; the text of the record calls up to 30% inactive
Target sequence (P14416 whole entry, looked up): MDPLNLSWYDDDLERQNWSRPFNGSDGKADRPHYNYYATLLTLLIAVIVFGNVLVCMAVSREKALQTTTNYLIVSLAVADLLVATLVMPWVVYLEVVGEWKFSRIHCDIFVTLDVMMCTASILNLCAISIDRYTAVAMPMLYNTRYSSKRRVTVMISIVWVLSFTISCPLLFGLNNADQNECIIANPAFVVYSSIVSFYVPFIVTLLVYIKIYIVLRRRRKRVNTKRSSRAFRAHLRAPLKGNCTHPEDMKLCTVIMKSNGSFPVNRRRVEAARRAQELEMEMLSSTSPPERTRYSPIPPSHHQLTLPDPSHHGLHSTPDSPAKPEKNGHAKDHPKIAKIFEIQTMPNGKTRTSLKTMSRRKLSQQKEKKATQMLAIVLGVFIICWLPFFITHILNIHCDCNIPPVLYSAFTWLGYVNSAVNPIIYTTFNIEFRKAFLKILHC
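Agonist mode: compounds alone added to overnight-plated D2 PathHunter cells for 90 min at 37 C, with 57 uM final dopamine (EC100) defining full response. Beta-arrestin recruitment detected by chemiluminescent reagent, read after 1 h at ambient temperature.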
D2 PAM: Beta-Arrestin HTS for Positive Allosteric Modulators of the Human D2 Dopamine Receptor: Potentiators | D(2) dopamine receptor (Homo sapiens), P14416 | DiscoveRx D2 beta-arrestin cells, luminescence, 90 min; 100% = 57 uM dopamine signal | actives 0.23% (n = 360,000) | AID 624464, 2012 | potentiation, % (no concentration beside the values); active = potentiation of 50% or more; inconclusive = 30% to 50%; inactive = 30% or less;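 note: compound concentration not given in the record; tested on top of an EC20 dose of dopamine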
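D2 cells co-treated with compound plus 50 nM dopamine (EC20) for 90 min at 37 deg C to detect potentiation. Beta-arrestin recruitment was read as enzyme-fragment luminescence after 1 h at ambient temperature. Full response was set by 57 uM dopamine.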
Six1-Eya2 inh: qHTS Assay for Inhibitors of the Six1/Eya2 Interaction | AlphaScreen GST-Six1/His-Eya2 binding, biochemical; stronger effect = lower value; control for the full effect not named in the record | Homeobox protein SIX1 (Homo sapiens) + Protein phosphatase EYA2 (Homo sapiens), … | activity change, % (no concentration beside the values) | actives 0.56% (n = 360,000); in the data active = activity change below about -65%; inconclusive = about -30% to -65%; inactive = above about -30%; note: % is set by controls: 0 for no effect and ±100 for the full control effect; compound concentration not given in the record
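AlphaScreen with GST-Six1 and His-Eya2 (5X mix: 250 nM and 500 nM), glutathione donor and nickel acceptor beads; buffer 50 mM Tris pH 8.0, 300 mM NaCl, 1 mM TCEP; 1 h at 37 C in the dark.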
TRPML1 inh: qHTS for Inhibitors of the Human Mucolipin Transient Receptor Potential 1 (TRPML1); actives 0.02% (n = 390,000); TRPML1-inducible cells, Ca2+ dye fluorescence, FDSS; stronger effect = lower value; inhibition of EC80 agonist-evoked calcium signal; AID 624415, 2012; activity change, negative = inhibition, % (test concentration not listed); Mucolipin-1 (Homo sapiens), Q9GZU1; in the data active means activity change below about -50%; inconclusive means about -30% to -50%; inactive means above about -30%;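 note: stimulus is agonist 54-4 at its EC80 concentration; % is set by controls: 0 for no effect and ±100 for the full control effect; compound concentration not given in the record; the text of the record puts the active cut at -80%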
Target sequence (Q9GZU1 whole entry, looked up): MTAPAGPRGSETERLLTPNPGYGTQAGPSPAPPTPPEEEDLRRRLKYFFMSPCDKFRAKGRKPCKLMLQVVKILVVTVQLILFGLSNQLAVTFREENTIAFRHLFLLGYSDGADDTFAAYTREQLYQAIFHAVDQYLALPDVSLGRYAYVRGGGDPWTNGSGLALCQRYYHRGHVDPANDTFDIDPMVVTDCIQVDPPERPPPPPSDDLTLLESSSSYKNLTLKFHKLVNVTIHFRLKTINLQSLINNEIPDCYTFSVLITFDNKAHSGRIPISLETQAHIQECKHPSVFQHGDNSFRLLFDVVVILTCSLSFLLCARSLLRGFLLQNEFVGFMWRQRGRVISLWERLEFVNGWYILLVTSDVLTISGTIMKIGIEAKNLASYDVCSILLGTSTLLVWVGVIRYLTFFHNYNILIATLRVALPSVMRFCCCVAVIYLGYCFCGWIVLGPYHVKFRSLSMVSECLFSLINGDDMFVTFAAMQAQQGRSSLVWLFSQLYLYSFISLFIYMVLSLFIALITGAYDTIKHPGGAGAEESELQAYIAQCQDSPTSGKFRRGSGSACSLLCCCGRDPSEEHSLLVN
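TRPML1-DL cells, Tet-induced overnight (~16 h, 37 °C) at 1,500 cells/well, were loaded with Ca8 no-wash dye plus quencher for 45-90 min at room temperature. Compounds were pinned during FDSS kinetic reading; agonist 54-4 at EC80 (4 uM final) then added.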
TRPML1 ag: qHTS for Agonists of the Human Mucolipin Transient Receptor Potential 1 (TRPML1). actives 0.12% (n = 410,000). activation, % (test concentration not listed). TRPML1-expressing cells, Ca2+ dye fluorescence, FDSS; host cell line not named in the record; reference of the full effect not given here. AID 624414, 2012. Mucolipin-1 (Homo sapiens), Q9GZU1; in the data active = activation above about 50%; inconclusive = about 30% to 50%; inactive = below about 30%; note: 0% is about no effect; the text of the record puts the active cut at 80%
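Tetracycline-induced TRPML1-DL cells are seeded and incubated overnight before loading with a no-wash Ca2+ dye and quencher. Agonist activity is taken from the 110 s fluorescence read following compound pin-transfer on an FDSS, before EC80 54-4 challenge.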
PINK1 modulator: A Quantitative High throughput Screen to Identify Chemical Modulators of PINK1 Expression; PINK1 immunofluorescence, high-content cytometry, 24 h; Potency, µM (top dose mostly 76.6 µM), for inactives: at the highest dose activation (PINK1 increase), hits mostly activators; actives 0.2% (n = 410,000); AID 624263, 2012; active = well fitted activation curve with a large enough effect; inconclusive = small, poorly fitted or top-dose-only effect; inactive = flat fitted curve, though single readings scatter; cell line not stated here;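 note: potency is the fitted concentration of half-maximal effect; % of control where 0% means no effect; nearly all actives have a fitted effect of over 65% in size; a mitochondrial uncoupler was the plate control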
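Readout is PINK1 immunofluorescence, quantified alongside mitochondrial, cell and nuclear markers by laser-scanning microplate cytometry. Cells from a stable line were exposed to compound titrations (5 concentrations) for 24 hours, with CCCP controls.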
* hit, by the source's call; ? = inconclusive; nt = no result given; [ ] = remark or other dose.

SMILES	D2 agonist	D2 PAM	Six1-Eya2 inh	TRPML1 inh	TRPML1 ag	PINK1 modulator
O=C1/C(=C/c2ccncc2)SC(=S)N1Cc1ccccc1	4.4	-2.7	-11.8	20.3	-0.5	-1.3%
CCN(CC)Cc1c(O)ccc2c1O/C(=C\C=C\c1ccccc1)C2=O	-5.1	-13.8	-0.6	nt	nt	0.9%
CC1(C)C(=O)C2(CCCCC2)C(=O)OC1C(=O)c1ccccc1 (configuration not stated)	-0.3	3.7	17.3	-0.6	1.4	3.9%
N#Cc1c2n(c(=S)n(-c3ccccc3)c1=O)CCCCC2	2.2	-2.4	11.6	1.7	-0.4	0.5%
O=C(CN1CCCc2ccccc21)N/N=C/c1c(O)ccc2ccccc12	5.9	?	?	-23.6	0.0	7.9%
COC(=O)c1cc(OC)c(OC)cc1NC(=S)N1CCN(c2ccccc2)CC1	-0.9	3.8	?	-2.3	2.1	nt
O=C(CCS(=O)(=O)c1cccc2nsnc12)N1CCN(c2ccccc2F)CC1	-2.3	-13.2	3.1	4.8	1.3	-0.7%
O=C(C(=O)N1CCN(Cc2ccccc2)CC1)c1c[nH]c2ccccc12	-2.8	-4.5	-6.0	2.5	0.1	2.7%
Cc1nc(S(=O)(=O)N2CCN(c3ccc(Cl)cc3)CC2)cn1C	nt	nt	nt	-21.7	0.1	-5.0%
O=C(NCCN1CCOCC1)c1ccc2c(c1)N(Cc1ccccc1)C(=O)c1ccccc1S2	-0.5	-10.9	0.3	-11.6	-0.2	-1.0%
CC(NCc1cccs1)C(=O)Nc1cc(Cl)cc(Cl)c1 (configuration not stated)	-5.9	-20.9	15.7	-13.7	-0.5	1.3%
COc1ccc(OCC(=O)NCc2n[nH]c(=O)c3ccccc23)cc1	-1.4	3.5	-7.2	-14.2	-0.2	1.6%
Cc1cc(=O)c2ccc(NC(=O)c3ccccc3)cc2[nH]1	-1.7	-3.2	-19.8	-6.2	-0.3	4.3%
COc1cccc(N(Cc2nnc3n2CCCCC3)C(=O)Nc2cccc(Cl)c2)c1	nt	nt	nt	-2.4	1.5	-3.5%
Cc1cccc(C(C)C)c1NC(=O)c1ccc2c(c1)CCCN2S(C)(=O)=O	nt	nt	nt	-4.4	0.4	1.0%
COCCCN=Cc1c(C)[nH]n(-c2ccc(Br)cc2Br)c1=O	2.3	-3.2	-5.8	9.0	0.0	6.0%
COc1ccc(OC)c(CNS(=O)(=O)c2ccc(-c3coc(C)n3)cc2)c1	nt	nt	nt	-12.2	1.3	-5.1%
Cc1cc(C)n(-c2ccc(C(=O)Nc3nc4ccccc4s3)cc2)n1	-0.7	-12.6	4.5	-3.5	-0.8	7.5%
CCOC(=O)N1CCOCCOCCN(C(=O)OCC)CCOCC1	0.3	-8.3	5.4	-7.3	-0.4	-2.6%
CCN(CC)CCn1c2c(c(SCC(=O)Nc3nc4ccc(C)cc4s3)nc1=O)CCC2	-6.2	17.4	-5.9	-8.4	-0.4	19.6%
O=C(CSc1ncn[nH]1)Nc1ccc(S(=O)(=O)Nc2ncccn2)cc1	-1.1	-0.4	18.1	5.1	0.7	0.4%
N#C/C(=C\c1ccncc1)c1nc2ccccc2[nH]1	9.0	21.1	-7.6	1.2	0.0	4.1%
Cc1cccc(C(=O)NC(NC(=S)Nc2ccc(S(N)(=O)=O)cc2)C(Cl)(Cl)Cl)c1 (configuration not stated)	3.1	-12.6	-9.9	-6.5	0.3	1.2%
COc1cc(C(=O)N2CCN(c3ccc([N+](=O)[O-])cc3)CC2)ccc1OCc1c(C)noc1C	0.9	1.2	0.6	-11.2	-0.3	2.0%
C=CCNC(=O)NC(=O)COC(=O)/C(C#N)=C/c1cc(C)n(CC(C)C)c1C	-1.7	-14.7	-7.6	11.7	0.2	0.5%[38.3 µM]

Whole records as entered above. Screens in order: D2 agonist | D2 PAM | Six1-Eya2 inh | TRPML1 inh | TRPML1 ag | PINK1 modulator
`N#C/C(=C\c1ccncc1)c1nc2ccccc2[nH]1` is entered as 9.0 | 21.1 | -7.6 | 1.2 | 0.0 | 4.1%
`CCN(CC)Cc1c(O)ccc2c1O/C(=C\C=C\c1ccccc1)C2=O` is entered as -5.1 | -13.8 | -0.6 | nt | nt | 0.9%

Carrying on.
SMILES	D2 agonist	D2 PAM	Six1-Eya2 inh	TRPML1 inh	TRPML1 ag	PINK1 modulator
COc1ccc(C(C#N)c2ccc(Cl)nn2)cc1 (configuration not stated)	-3.2	-5.2	-0.8	-6.3	-0.8	-0.8%
CN(C(=O)CO/N=C/c1ccc(OC(F)F)cc1)C1CCS(=O)(=O)C1 (configuration not stated)	3.3	-1.1	-3.2	-8.9	2.4	-2.4%
Cc1cccc(C)c1OCc1nnc(SCC(=O)Nc2ccc(N3CCOCC3)cc2)o1	6.0	-0.1	0.0	-9.0	-0.3	1.2%
O=C1c2oc3ccccc3c(=O)c2C(c2cccnc2)N1Cc1ccco1 (configuration not stated)	-2.9	-5.0	-2.4	1.1	-0.9	-0.5%
CCN(CC)CCNC(=O)CN1C(=O)c2cccnc2Oc2ccc(C)cc21	nt	nt	nt	-5.7	0.1	3.3%
CCC(C)(C)NC(=O)CN(C(=O)CCC(=O)Nc1nccs1)c1cccc(C)c1C	-2.3	-7.4	-3.3	6.3	0.5	-2.2%
CC(=O)Oc1ccc(N(C(C)=O)S(=O)(=O)c2ccc(C)c([N+](=O)[O-])c2)cc1	11.1	8.9	?	13.4	0.0	-0.8%
CCN(C1CCCCC1)S(=O)(=O)c1ccc(OC)c(C)c1	-4.8	-17.7	18.7	-17.3	0.1	-0.1%
CCOc1ccccc1NC(=O)C1(S(=O)(=O)c2ccc(Cl)cc2)CC1	-3.6	-4.6	13.6	44.5	4.2	0.2%
CC1CCCC(C)N1CCCNC(=O)C1CCCN(S(=O)(=O)N2CCCCC2)C1 (configuration not stated)	-2.2	-5.9	11.6	4.7	-0.3	0.5%
O=C(CN1CCN(c2ccccc2)CC1)Nc1c(C(=O)C2CC2)oc2ccccc12	-1.8	-7.9	1.1	-2.4	0.6	1.3%
COCc1cc(Sc2ccc(Cl)cc2)nc(C)n1	-0.1	-3.7	0.5	6.2	-0.9	-0.8%
O=C(c1ccc2ccccc2n1)N1CCN(c2ccccn2)CC1	-5.8	-2.7	-2.2	10.1	-0.3	-1.9%
C=CCn1c(SC)nnc1C1COc2ccccc2O1 (configuration not stated)	-5.2	2.1	0.0	-13.9	-0.3	2.2%
COc1ccc(C(=O)NNC(=O)C(NC(=O)c2cc(OC)cc(OC)c2)C(C)C)cc1 (configuration not stated)	9.9	1.3	-1.1	-4.4	3.8	0.8%
Cc1ccc(OCC(O)CN2CCN(CCO)CC2)c(C)c1 (configuration not stated)	-0.9	-2.9	8.0	25.0	1.0	-0.1%
COc1ccc(CNC(=O)c2cc(-n3cnnc3)ccc2Cl)cc1	-5.3	-6.4	0.0	9.1	-0.3	-1.1%
CC(C)(C)OC(=O)NNc1c2ccccc2nc2ccccc12	-2.0	-6.9	0.8	13.5	-0.2	1.5%
CC(=O)N(C)c1ccc(NC(=O)Nc2ccc(C)cc2)cc1	1.2	-1.6	0.1	48.4	0.5	0.6%
COc1cccc(CN2CC(C(=O)N(C)CC3CCOCC3)CCC2=O)c1 (configuration not stated)	-2.3	5.1	10.3	-7.8	0.4	0.0%
Cc1ccc(CNC(=O)CCC(=O)N2CCSc3ccccc32)cc1	nt	nt	nt	12.1	-0.4	0.6%
CCOC(=O)CN1CCC(c2ccccc2)CC1	2.4	-12.1	4.5	-8.1	0.5	-0.9%
Cc1cc(NCCc2ccccc2F)n2ncnc2n1	-1.4	-0.3	4.7	-6.7	-0.4	-1.0%
O=C(NCCc1ccccc1F)C1CC(O)CN1C(=O)Nc1ccccc1 (configuration not stated)	-2.9	-4.4	9.0	-20.2	1.0	-1.6%
O=C(COC(=O)COc1ccc(Cl)cc1)NCc1cccs1	-2.8	-14.7	3.9	3.2	0.5	2.4%

Continued.
SMILES	D2 agonist	D2 PAM	Six1-Eya2 inh	TRPML1 inh	TRPML1 ag	PINK1 modulator
NS(=O)(=O)c1ccc(CCNC(=O)Cn2c(-c3cccs3)cc3ccccc32)cc1	nt	nt	nt	0.4	0.3	-1.3%
CC(=O)Oc1ccc(NC(=O)C2CCCCC2)c(C(=O)O)c1	-2.4	5.8	3.5	-9.0	-0.7	6.7%[38.3 µM]
c1ccc(Cn2c(SCc3nc4ccccc4s3)nnc2-c2ccco2)cc1	11.3	?	?	11.4	-0.6	-1.4%
c1ccc2c(C(c3nnnn3-c3ccc4c(c3)OCCO4)N3CCOCC3)ccnc2c1 (configuration not stated)	nt	nt	3.1	nt	-0.6	-1.1%
O=C(c1cc(-c2cccs2)on1)N1CCCCC1	-3.8	-13.8	2.8	8.3	-0.5	-0.1%
Cc1cc(C)nc(NC(=O)c2cc(-c3ccc(C)s3)nc3ccccc23)c1	-2.6	-11.3	27.6	23.4	1.2	11.2%
O=c1[nH][nH]c(-c2ccccc2)c1-c1ccccc1	-3.1	-5.0	-2.8	-3.2	-1.0	-0.3%
O=C(/C(=C/O)N=Nc1cccc(C(F)(F)F)c1)c1ccccc1	3.4	-8.5	-2.8	28.6	2.3	-2.1%
Cc1ccc(-c2[nH]c(-c3ccc(Cl)cc3)nc2SCC(=O)NCC2CCCO2)cc1 (configuration not stated)	-2.4	-10.8	-4.4	8.6	1.8	22.7%
O=C(O)c1ccc(N2N=C(c3ccccc3)CC2c2ccccc2)cc1 (configuration not stated)	-3.5	-14.0	13.2	7.8	0.3	-1.9%
O=C(COC(=O)c1cc(S(=O)(=O)N2CCOCC2)ccc1F)Nc1ccc(Cl)cn1	1.5	6.6	9.9	5.4	1.7	0.0%
CCCCC(CC)C(=O)NCCc1ccc(S(N)(=O)=O)cc1 (configuration not stated)	-2.2	-11.8	1.6	20.9	-0.6	3.8%
COc1ccc(C(=O)OCC(=O)NC2CC2)cc1OC	-1.0	-4.5	4.5	-6.1	0.2	-1.2%
CN(C)c1ccc(NC(=S)c2ccccn2)cc1	-4.1	-12.3	-88.4*	-9.3	0.8	2.2%
CC(=O)C1=C(C)OC(N)=C(C#N)C1c1cc2cc(C)c(C)cc2nc1Cl (configuration not stated)	-5.5	-14.1	-4.4	-9.6	1.4	3.4%[38.3 µM]

Just PINK1 modulator, for five of the compounds above:
molecule	PINK1 modulator
NS(=O)(=O)c1ccc(CCNC(=O)Cn2c(-c3cccs3)cc3ccccc32)cc1	-1.3%
CC(=O)Oc1ccc(NC(=O)C2CCCCC2)c(C(=O)O)c1	6.7%[38.3 µM]
c1ccc(Cn2c(SCc3nc4ccccc4s3)nnc2-c2ccco2)cc1	-1.4%
c1ccc2c(C(c3nnnn3-c3ccc4c(c3)OCCO4)N3CCOCC3)ccnc2c1 (configuration not stated)	-1.1%
O=C(c1cc(-c2cccs2)on1)N1CCCCC1	-0.1%
